Screens deposited in PubChem BioAssay by Broad Institute.
Beta cell apopt – blocks beta cell apoptosis; INS-1E cytokine-induced death, ATP luminescence, 48 h; percent of positive-control rescue, neutral wells zero; protection from apoptosis, % (test concentration not listed); hit rate 0.8% among 300,000; AID 435005;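 active = all replicates at 75% or more, or half of them and the mean; inconclusive = half reach 75% but not the mean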;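 note: 0% = cytokine-treated negative control wells and 100% = positive control rescue; higher means more ATP so stronger rescue from cytokine killing; wells of about 40 µL received 100 nL stock; the first replicate is given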
FGF22 binding – FGF22 (human) thermal shift binding | calls only at 9.99 µM | AID 651658 | Q9HCT0 | hit rate 1.5% among 340,000 | recombinant FGF22 thermal shift, SYPRO orange fluorescence; percent of sucrose octasulfate shift, DMSO zero;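 active = melting point raised past a set limit in the mean and every replicate; inconclusive = no clear call; three in four hits are not shown here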
Target sequence (Q9HCT0 whole entry, looked up): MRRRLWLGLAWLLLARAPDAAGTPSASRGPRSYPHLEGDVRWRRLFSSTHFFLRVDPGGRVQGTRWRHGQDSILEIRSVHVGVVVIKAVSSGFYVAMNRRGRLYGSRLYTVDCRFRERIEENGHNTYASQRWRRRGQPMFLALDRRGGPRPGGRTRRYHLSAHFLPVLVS
Calb FLC – C. albicans growth modulation with fluconazole; C. albicans CaCi-2 (fluconazole-resistant clinical isolate) + fluconazole, Alamar Blue growth, 48 h; growth inhibition, % (no concentration beside the values); hit rate 0.57% among 300,000; AID 1979;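 active = most replicates above 75%; inconclusive = exactly half above 75%; inactive = most below 75%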;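 note: all wells also contain fluconazole at 8 µg/ml as a sub-toxic cotreatment; 0% = median of DMSO wells and 100% = median of geldanamycin control wells; wells of about 8 µL received 7.5 nL stock; the first replicate is given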
RanGTP-Imp inh – inhibitors of RanGTP-importin-beta interaction, primary screen, biochemical, FRET, CFP-Ran, YFP-importin-beta, homogeneous; cell-free CFP-Ran/YFP-importin-beta FRET ratio; inhibition, % (test concentration not listed); hit rate 1.1% among 300,000; AID 2216;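 active = most replicates above 15%; inconclusive = exactly half above 15%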;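 note: 0% = DMSO wells and 100% = Ran loaded with GDP instead of GTP; wells of about 40 µL received 100 nL stock; the first replicate is given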
ALR H2O2 inh – human ALR oxidase inhibition via reduced H2O2; purified ALR, DTT oxidation, H2O2 HRP-luminol luminescence; inhibition, % (concentration not given with the values); P55789; AID 485317; hit rate 3.8% among 290,000;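 active = mean and each replicate at 75% or more; inconclusive = only one of the two met; inactive = neither met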;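 note: stock transfer was 7.5 nL into about 7.5 µL; 0% = neutral wells and 100% = wells with inactivated enzyme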
Target sequence (P55789 whole entry, looked up): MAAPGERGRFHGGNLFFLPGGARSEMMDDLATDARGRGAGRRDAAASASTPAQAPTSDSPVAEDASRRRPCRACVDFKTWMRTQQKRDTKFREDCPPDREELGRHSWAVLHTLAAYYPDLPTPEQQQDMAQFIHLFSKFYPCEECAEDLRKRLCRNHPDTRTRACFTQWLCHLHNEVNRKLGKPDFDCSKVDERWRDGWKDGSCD
rRNA inh HTS – inhibitors of bacterial rRNA selective over humanized ribosomes | E. coli WT GFP vs humanized-ribosome RFP mutants, fluorescence, 24 h; stronger effect = lower value; DMSO median 0, no signal -100 | GFP signal change (wild-type ribosome), % (concentration not given with the values) | hit rate 1.6% among 350,000 | AID 720706;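 active = significant combined selectivity score with lowered wild-type GFP, culture density cut under 30%, mutant RFP and density less affected; inactive = any of these conditions unmet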; note: one replicate is shown; some compounds called inactive have numbers as strong as hits
AF4-AF9 inh – inhibitors of human MLL-AF4/AF9 interaction; AID 651704; inhibition, % at 10 µM; hit rate 0.47% among 350,000; AlphaScreen, biotin-AF4 peptide binding to FLAG-AF9; P42568;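 active = every replicate reaching a set inhibition limit, whatever the replicate mean, cut at about 25% in these data; inconclusive = mean inhibition reaches that limit but some replicates miss it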;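 note: 0% = plate neutral control median and 100% = total signal loss; the record names both 10 and 1 µM as test concentration; the first replicate is given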
Target sequence (P42568 whole entry, looked up): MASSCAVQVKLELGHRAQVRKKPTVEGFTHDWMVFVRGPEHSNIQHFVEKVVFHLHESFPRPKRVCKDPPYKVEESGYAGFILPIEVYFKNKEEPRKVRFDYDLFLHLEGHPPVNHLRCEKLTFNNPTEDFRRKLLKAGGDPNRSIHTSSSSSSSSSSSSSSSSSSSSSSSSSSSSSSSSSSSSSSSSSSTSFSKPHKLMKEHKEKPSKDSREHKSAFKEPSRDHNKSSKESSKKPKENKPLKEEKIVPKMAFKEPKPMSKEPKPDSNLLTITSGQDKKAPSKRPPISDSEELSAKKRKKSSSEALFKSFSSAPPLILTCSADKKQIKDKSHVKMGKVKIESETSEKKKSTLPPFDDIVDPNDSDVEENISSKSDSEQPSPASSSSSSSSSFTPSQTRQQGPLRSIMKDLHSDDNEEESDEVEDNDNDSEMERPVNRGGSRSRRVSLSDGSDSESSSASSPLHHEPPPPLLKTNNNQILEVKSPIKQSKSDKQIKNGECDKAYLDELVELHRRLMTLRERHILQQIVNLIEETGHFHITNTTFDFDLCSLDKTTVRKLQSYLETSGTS
T cruzi inh – T. cruzi replication inhibition; hit rate 1.4% among 300,000; T. cruzi beta-gal in NIH3T3, luminescence, 90 h; inhibition, % (test concentration not listed); AID 1885;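 active = mean inhibition across valid replicates above about 55%, limit read from the data; inconclusive = mean below that limit but half or more replicates reach it; inactive = mean below it, under half of replicates reach it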;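 note: signal also drops with host cell toxicity which is not excluded here; 0% = plate median of DMSO wells and 100% = zero luminescence signal; higher percent means less beta-gal luminescence so fewer parasites; stock transfer was 50 nL into about 50 µL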
rRNA inh HTS OD600 – also measured in rRNA inh HTS; calls as there; OD600 change, %; measured here: OD600 growth;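 optical density of the mix in the first replicate; 0 = DMSO median and -100 = no signal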
rRNA inh HTS RFP – second read-out of rRNA inh HTS, no call of its own (marks repeat the call); RFP signal change, %; measured here: RFP humanized mutant strains;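 first replicate; 0 = DMSO median and -100 = no signal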
Starred values were filed as active, the others as inactive; i = inactive; u = inconclusive; x = not tested or not shown. Some of the compounds tested; the hit share may differ from the screen's.

Molecule	Beta cell apopt	FGF22 binding	Calb FLC	RanGTP-Imp inh	ALR H2O2 inh	rRNA inh HTS	rRNA inh HTS OD600	rRNA inh HTS RFP	AF4-AF9 inh	T cruzi inh
Cc1ccc(-c2cc(C(=O)N/N=C/C(Br)=C/c3ccccc3)n[nH]2)o1	41.9	i	23.4	-9.6	-1.3	-57.9	-79.1	-19.5	1.6	-14.6
CCOCCOC(=O)c1ccc(-n2cncn2)nc1	-6.3	x	0.4	3.9	-3.2	x	x	x	x	-0.5
COC(=O)c1cccc(NC(=O)CSc2nncn2-c2ccccn2)c1	-1.2	i	2.7	1.3	-8.4	2.5	9.6	0.8	0.0	6.1
O=C(CCCn1c(=S)[nH]c2ccccc2c1=O)NCc1ccco1	2.0	x	-5.9	0.9	-8.5	x	x	x	x	-7.8
C/C(=N\Nc1ccccn1)c1ccc(C(C)C)cc1	8.3	i	3.9	-0.7	-3.0	-0.3	-1.1	-1.8	14.2	13.0
N#C/C(=C\c1ccc([N+](=O)[O-])o1)c1nc2ccccc2[nH]1	100.1*	i	25.1	x	-9.1	-10.6	10.7	32.8	0.3	48.6
N/C(=N\OC(=O)Cc1ccccc1)c1ccc(Br)cc1	x	i	0.6	4.1	2.3	x	x	x	-14.7	-17.9
CCCC(C)NC(=O)Cc1ccccc1[N+](=O)[O-] (stereo not drawn)	-5.0	i	3.3	0.4	-8.3	8.2	11.7	2.1	-1.5	-10.0
CCOc1cc(C2c3c(n[nH]c3C)C(=O)N2c2ccc(Br)cc2)ccc1O (stereo not drawn)	-4.0	x	12.8	1.3	28.1	x	x	x	x	6.5
CN1CCc2c(sc3c2C(=O)NC(c2cccs2)N3)C1 (stereo not drawn)	-2.6	i	-7.7	117.8*	-8.0	13.8	-1.2	5.0	3.1	-8.1
O=C1OC[C@@H]2CCCN2C(=O)[C@H](CC(=O)N(CCO)Cc2ccccc2)C/C=C\C[C@H]1Cc1ccc(F)cc1	-6.1	i	x	x	-4.2	-13.8	-12.2	37.7	1.6	x
CC(OC(=O)c1ccc2c(=O)n3c(nc2c1)CCCCC3)C(=O)Nc1ccc(Cl)cn1 (stereo not drawn)	-7.3	i	-0.9	0.0	-10.0	5.6	-0.6	0.1	-0.3	-11.7
Cn1ncc(C#N)c1/N=C/N1CCCCC1	-3.6	x	-8.1	1.2	-14.5	x	x	x	x	-1.6
CC(=O)c1ccc(NC(=S)NC(=O)c2c(Cl)c(C)nn2C)cc1	-1.4	x	-2.0	-4.7	1.1	x	x	x	x	-2.9
Cc1ccc(NC(=O)CCS(=O)(=O)c2cc3c(cc2Cl)NC(=O)CO3)cc1	20.3	i	0.1	-12.2	0.0	3.3	11.1	1.9	-1.5	-19.3
Cc1nc2sccn2c(=O)c1S(=O)(=O)N1CCN(c2ccccc2)CC1	-1.1	i	9.1	1.0	72.4	-2.1	-10.0	-4.0	-0.5	-11.2
Cn1c(C(=O)NCCCN2CCCCCC2)cc2c(=O)n(C)c3ccccc3c21	-2.7	i	x	x	0.4	-13.2	-5.5	1.3	8.9	x
O=C(CNC(=O)c1ccco1)NCc1nc2ccccc2[nH]1	x	i	1.7	1.6	-5.5	12.9	15.9	0.8	-1.9	10.9
COc1ccc(OCCNC(=O)CCCO)cc1	-7.7	i	11.5	-2.7	0.7	14.2	7.8	-0.9	-1.3	x
CC(=O)Nc1sc2c(c1C(c1ccc(F)cc1)N1CCOCC1)CCCC2 (stereo not drawn)	8.4	x	4.1	-2.8	5.3	x	x	x	x	29.2
Cc1ccc2c(c1)nnn2C1CCN(S(=O)(=O)c2ccc(C(=O)N3C(C)CCCC3C)cc2)CC1 (stereo not drawn)	106.1*	x	11.8	0.2	-5.8	x	x	x	x	41.4
O=C(NCc1ccccc1)c1noc2c1CCCC2	-0.4	x	15.3	0.2	-1.1	x	x	x	x	-5.5
Cc1c(C)n(C)c2ccc(C(=O)NCCCN3CCN(c4ccc(F)cc4)CC3)cc12	-6.7	i	6.4	1.9	40.7	-6.2	0.2	14.0	18.6	13.5
Cc1ccc(Cl)cc1NC(=S)NCCCSC1CCCCC1	10.9	x	-25.8	-2.6	-0.9	-40.3	-72.0	-6.3	-1.1	35.4
CN(CCO)C(=O)C1CCN(c2ncc(C(F)(F)F)cc2Cl)CC1	-0.4	x	-14.8	-1.1	3.8	-5.0	-16.3	-4.5	-1.4	-4.5
O=C(COC(=O)c1ccc(S(=O)(=O)N2CCOCC2)cc1)NC1CCCCCCC1	4.0	i	0.2	1.2	-9.6	12.2	8.7	1.5	-2.5	-12.1
COc1ccc(N2C(=O)/C(=C/c3ccc([N+](=O)[O-])cc3)N=C2C)c(OC)c1	x	i	8.2	-4.6	-3.7	15.6	8.6	8.8	1.6	6.4
Cc1ccc(S(=O)(=O)N2CCOCC2)cc1NC(=O)COC(=O)CCOc1ccc(C(C)(C)C)cc1	-2.6	i	-2.0	0.4	-7.4	4.9	9.5	1.1	1.4	-15.3
COc1ccc([C@H]2CC(=O)C=C(c3cccc(OC)c3)C2)cc1	5.5	i	x	x	3.9	-21.1	-25.9	-13.3	1.1	x
C(=N\n1cnc2ccccc21)/c1cccnc1	-22.5	x	27.5	-0.3	x	x	x	x	x	-7.2
O=[N+]([O-])c1ccc(Cl)c(S(=O)(=O)N2CCCCCC2)c1	-4.5	x	-2.3	-2.0	58.4	x	x	x	x	16.8
CCOc1ccc(S(=O)(=O)NCc2cccnc2)cc1C	x	i	-4.7	1.4	-1.6	11.5	7.3	1.0	0.0	-22.7
Cc1ccc(S(=O)(=O)N(C)CC(=O)O/N=C(\N)c2ccc([N+](=O)[O-])cc2)cc1	-4.8	x	-21.7	-3.9	-18.0	x	x	x	x	15.4
NC(=O)CC(NC(=O)Cc1ccc(Br)cc1)c1ccc(NC2CCCCCC2)c([N+](=O)[O-])c1 (stereo not drawn)	-8.0	i	-1.7	1.5	-2.5	7.5	14.8	-3.4	-6.6	-10.8
CCCCN(CC)CCCNC(=O)c1cn(C)c2ccc(S(=O)(=O)N(C)C3CCCCC3)cc2c1=O	-5.0	i	1.5	1.3	1.3	10.4	10.0	2.6	2.2	44.3
Cc1cc(C)nc(N2CCN(C(=O)c3ccc(S(=O)(=O)N4CCCCCC4)cc3)CC2)n1	4.2	i	3.3	3.1	0.9	4.7	0.8	0.4	-0.5	-1.8
O=C(CSc1nc2[nH]ncc2c(=O)[nH]1)Nc1cccc([N+](=O)[O-])c1	x	i	-2.5	-0.5	-0.6	-3.9	-2.2	-3.3	-2.5	-9.8
Cc1cccc(NC(=O)COc2cccc3c2CCN(C)C3=O)c1	2.3	i	11.9	4.6	x	-8.4	-4.1	6.0	-0.9	10.8
CN(C(=O)c1ccccc1Cl)c1ccccc1	-9.0	x	-6.0	-1.5	-16.4	x	x	x	x	-10.0
O=C(Cc1ccc(Cl)cc1Cl)OCC(=O)c1ccc[nH]1	-2.0	x	10.9	2.8	-3.6	x	x	x	x	9.1
CC(C)c1ccc(S(=O)(=O)N2CCN(CC(=O)Nc3ccc(Cl)cc3F)CC2)cc1	16.7	i	x	x	-2.3	19.2	12.7	1.4	-2.0	x
CCOC(=O)CCn1c(=O)c2c(nc(Br)n2Cc2ccccc2)n(C)c1=O	-5.1	x	4.5	2.5	0.9	x	x	x	x	-1.6
O=C(c1ccccc1)N(Nc1ccccc1)c1ccccc1	-2.4	i	u	3.9	76.1*	-8.1	-11.9	-2.5	-0.1	0.5
CCCCNC(=O)CCN1N=C(c2ccccc2)CCC1=O	-0.4	i	4.0	0.9	-8.4	7.1	3.2	15.4	-4.9	-6.9
COc1ccc(S(=O)(=O)c2ccc(OC)c(OC)c2)cc1OC	-5.9	x	2.9	-2.4	-4.1	x	x	x	x	3.0
O=c1cc(-c2ccccc2)[nH]c2ccc(F)cc12	19.0	i	1.6	3.3	-12.8	13.2	23.1	-2.4	-2.7	-2.8
CCc1ccc(-c2nc3ccc(Br)cc3c(C(=O)O)c2C)s1	-1.8	x	9.7	5.6	50.1	-8.9	-14.5	3.3	-2.6	4.9
COc1cc(CN2CCN(Cc3ccccc3C(F)(F)F)CC2)cc(OC)c1OC	-1.0	i	-3.7	3.9	x	3.0	-2.4	-0.5	5.5	17.6
O=C(NNC(=O)c1cccnc1)NC1CCCCC1	3.4	i	-12.9	-3.9	17.7	21.4	18.4	-0.9	-2.3	-4.1
CCN1CC(CN(C)Cc2nc(-c3ccc(Cl)cc3)no2)CC1=O (stereo not drawn)	-5.0	i	10.8	3.1	-5.3	-2.2	-6.8	-2.2	7.3	4.4

(cont.)
Molecule	Beta cell apopt	FGF22 binding	Calb FLC	RanGTP-Imp inh	ALR H2O2 inh	rRNA inh HTS	rRNA inh HTS OD600	rRNA inh HTS RFP	AF4-AF9 inh	T cruzi inh
Cc1ccnc(NC(=O)c2ccc3c(c2)C(=O)N(CCC(C)C)C3=O)c1	x	i	-7.9	2.3	0.4	4.2	13.5	0.6	-0.4	-3.9
CCOC(=O)CC1C(=O)NCCN1Cc1cccc(C(F)(F)F)c1 (stereo not drawn)	x	i	-0.6	-1.3	-13.6	-0.2	-12.3	-0.1	-7.5	-0.9
CC(=O)Nc1sc(C)c(C)c1C(=O)OCC(=O)Nc1cc(S(=O)(=O)N2CCCCC2)ccc1Cl	3.0	x	-2.9	-5.2	-5.9	x	x	x	x	20.1
O=C(Cn1c(COc2ccc(Cl)cc2)nc2ccccc21)NCC(F)(F)F	x	x	1.5	-1.6	5.2	x	x	x	x	-1.7
COc1cc(C)ccc1OCCCOc1cc(C)ccc1Cl	-5.3	x	-1.9	2.5	1.4	x	x	x	x	5.0
Nc1c(C(=O)NCc2ccc(Cl)cc2)sc2nc3c(c(C(F)(F)F)c12)CCC3	-6.1	x	22.4	1.1	-2.4	-4.2	-4.9	0.2	x	46.4
